Source: PubChem BioAssay
Env fusion inh: inhibitors of HIV-1 Env-driven cell-cell fusion, primary screen, HeLa-JRFL effector, CEM21 target cells, luciferase; inhibition, % at 12.3 µM; 360,000 compounds, 1.1% hits; AID 651610, 2012;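 active means mean replicate inhibition score of at least 50 and every replicate individually at or above 50; inconclusive means only one of the two criteria met; inactive means mean below 50 and not all replicates reaching 50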;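 further: 0% = plate neutral controls and 100% = maraviroc near 300 nM; one replicate is shown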
UUG fidelity: modulators of yeast start codon fidelity, primary screen, whole organism, S. cerevisiae, single point, plate reader; S. cerevisiae UUG-firefly luciferase reporter, luminescence/redox ratio; activity score, % at 18.7 µM; 350,000 compounds, 0.13% hits; AID 602363, 2012;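 active means replicate mean at a twofold rise or more, about +100% in these data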;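 further: firefly luciferase made from a UUG start codon reports start codon fidelity; reporter light over untreated wells divided by growth signal over untreated wells; some hits fall short of that in this replicate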
MT1-MMP act inh: blockers of MT1-MMP proenzyme processing, primary screen, HT1080 RFP-PRO-GFP cells, GFP/RFP fluorescence; GFP/RFP ratio fluorescence, overnight; percent of plate control window, DMSO zero; GFP/RFP ratio change, % at 20 µM; 360,000 compounds, 0.061% hits;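 active means GFP/RFP ratio change of at least 30% with cell ATP level not reduced by more than half and red fluorescence within 50% of control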; further: strong numbers were not always called active
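Assay system: HT1080 RFP-PRO-GFP cells. Benchmarks: DMSO vehicle wells and RFP-L50D-GFP reporter cell wells. Times: overnight cell settling, then overnight compound exposure, 37 °C, 5% CO2. Compound: 20 µM single dose, 1% DMSO. Read-out basis: GFP/RFP fluorescence ratio.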
CSC inhib: cancer stem cell viability inhibitors, primary screen, luminescence; cancer stem cell-like cells viability; inhibition, % at 7.5 µM; 300,000 compounds, 1.1% hits; AID 2717, 2010;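 active means mean at 75% or more and at least half the replicates too; inconclusive means mean and replicates disagree; tested in HMLE shEcad cells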;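 further: 0% = median of negative and 100% = median of positive control wells; the first replicate is given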
eIF4H FP inh: human eIF4H binding inhibitors, primary screen, translation initiation inhibitor project, biochemical, uHTS, fluorescence polarization; eIF4H fluorescence polarization binding assay; inhibition, % at 35 µM; Eukaryotic translation initiation factor 4H (Homo sapiens), Q15056; 290,000 compounds, 0.94% hits;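 active means 50% or more with normal probe brightness, or confirmed in later tests; inconclusive means above 50% with abnormal brightness, or retests that disagree; inactive means below 50% or failed in later tests; about a fifth of its hits are not listed in these tables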;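 further: calls also rest on retests at 20 µM and on dose response follow-up; 0% = protein and probe with vehicle and 100% = probe without protein; strong numbers were not always called active; many hits fall short of the cut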
Rce1 inh: yeast Rce1p protease inhibitors, primary screen, biochemical, fluorescence, cell-free homogeneous; CAAX prenyl protease 2 (Saccharomyces cerevisiae (strain ATCC 204508 / S288c)), Q03530; 290,000 compounds, 0.27% hits; yeast membranes, quenched prenylated peptide cleavage fluorescence; calls only; AID 2563, 2010;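 active means fall in fluorescence gain of 50% or more versus controls, with final raw signal at or below 3038400; inconclusive means same 50% fall but final raw signal above 3038400; inactive means fall in fluorescence gain under 50%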;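 further: plate controls were neutral control wells for no effect and wells lacking membranes for full effect; tested at 10 µM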
Target sequence (Q03530 whole entry, looked up): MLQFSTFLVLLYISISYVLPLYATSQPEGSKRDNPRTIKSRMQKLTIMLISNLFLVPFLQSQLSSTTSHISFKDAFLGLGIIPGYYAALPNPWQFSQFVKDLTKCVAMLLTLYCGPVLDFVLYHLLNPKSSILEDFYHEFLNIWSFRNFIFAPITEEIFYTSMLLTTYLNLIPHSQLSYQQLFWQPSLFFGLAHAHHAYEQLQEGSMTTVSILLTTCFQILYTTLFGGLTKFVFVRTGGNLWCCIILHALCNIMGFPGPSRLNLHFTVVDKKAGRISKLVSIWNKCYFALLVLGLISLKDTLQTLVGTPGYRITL
PABP FP inh: PABP poly(A) RNA binding inhibitors, primary screen, biochemical, fluorescence polarization, uHTS. Polyadenylate-binding protein 1 (Homo sapiens), P11940. inhibition, % at 35 µM. 290,000 compounds, 1% hits. AID 2014, 2009;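 active means 50% or more with normal probe brightness, or confirmed in later tests; inconclusive means above 50% with abnormal brightness, or retests that disagree; inactive means below 50% or failed in later tests; about a fifth of its hits are not listed in these tables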;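 further: calls also rest on retests at 20 µM and on dose response follow-up; controls were probe without protein and protein plus probe with vehicle; some compounds called inactive have numbers as strong as hits; many hits fall short of the cut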
Target sequence (P11940 whole entry, looked up): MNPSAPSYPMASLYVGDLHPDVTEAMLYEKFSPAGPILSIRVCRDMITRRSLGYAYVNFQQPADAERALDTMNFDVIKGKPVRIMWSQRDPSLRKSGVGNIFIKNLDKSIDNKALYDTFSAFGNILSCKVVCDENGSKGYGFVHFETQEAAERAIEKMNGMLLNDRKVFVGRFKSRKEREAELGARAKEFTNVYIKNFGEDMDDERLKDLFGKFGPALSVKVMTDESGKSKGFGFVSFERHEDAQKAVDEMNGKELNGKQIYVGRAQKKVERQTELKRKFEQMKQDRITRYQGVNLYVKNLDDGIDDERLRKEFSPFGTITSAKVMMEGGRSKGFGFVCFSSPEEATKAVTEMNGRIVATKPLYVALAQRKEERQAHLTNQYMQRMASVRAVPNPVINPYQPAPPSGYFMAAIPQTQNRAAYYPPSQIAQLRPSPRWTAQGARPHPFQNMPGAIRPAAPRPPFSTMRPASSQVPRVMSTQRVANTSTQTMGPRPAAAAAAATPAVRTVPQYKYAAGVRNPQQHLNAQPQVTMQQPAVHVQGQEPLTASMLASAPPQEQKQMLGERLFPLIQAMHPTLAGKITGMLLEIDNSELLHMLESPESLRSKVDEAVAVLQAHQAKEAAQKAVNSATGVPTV
eIF4H FP inh retest: recorded beside eIF4H FP inh, whose call it bears; inhibition, %; compound at 20 µM; confirmation average;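 mean of two retest wells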
PABP FP inh retest: recorded beside PABP FP inh, whose call it bears; inhibition, %; compound at 20 µM; confirmation repeats;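 mean of two retest wells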
MT1-MMP act inh RFP: also measured in MT1-MMP act inh; calls as there; RFP signal change, %; measured here: RFP expression control read;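 0 = vehicle wells; hits needed this value within 50% of zero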
Starred values were filed as active, the others as inactive; i = inactive; ? = inconclusive; / = not tested or not shown; + = active, no number; & = joins results of further samples.

SMILES	Env fusion inh	UUG fidelity	MT1-MMP act inh	MT1-MMP act inh RFP	CSC inhib	eIF4H FP inh	Rce1 inh	PABP FP inh	others
CN(Cc1ccc(OC(F)F)cc1)Cc1nc2c(Br)cc(Br)cc2c(=O)[nH]1	-2.4	/	2.5	-1.4	31.5	9.8	i	-1.2
O=C(O)/C=C/C(=O)N1CCN(C(=O)/C=C/C(=O)O)CC1	-13.2	-16.4	1.0	6.1	/	10.7	i	108.1	eIF4H FP inh retest=6.1;PABP FP inh retest=2.8
CC(=O)N1N=C(c2ccco2)CC1c1ccc(Br)cc1 (stereo not drawn)	-8.3	/	-1.5	0.0	-9.2	-3.1	i	-4.8
COc1ccc(C(=O)NC2CC3CCCC(C2)N3CC(C)C)cc1 (stereo not drawn)	3.4	-10.1	-2.2	4.2	-12.7	-7.6	i	-10.0
O=C(O)c1ccc(N/N=C/c2cn(-c3ccccc3)nc2-c2cccs2)cc1	-344.9	/	2.9	-0.3	-9.4	1.1	i	-7.7
COc1ccc(OC)c(NC(=O)Cn2c(CCC(=O)O)ccc2-c2cccs2)c1	/	-7.9	-3.7	-2.2	-8.4	4.9	/	9.8
Nc1ccccc1C(=O)N1O[C@@H]2C=C[C@H]1C2	-15.4	-21.1	0.3	3.0	/	/	/	/
COc1ccc(-c2nnc(OCc3ccccc3)c3ccccc23)cc1	12.2	-10.6	-1.5	-7.4	-7.1	-4.1	i	4.9
Cc1cc(C)n2cc(CSc3ncccc3C(=O)O)nc2n1	/	-14.5	1.8	3.3	15.0	6.5	+	4.3
O=C(COc1ccc(F)c(Cl)c1)NC(=O)NC1CCCC1	-17.8	-16.6	-1.1	-1.0	/	/	/	/
COCCC(=O)Nc1ccc2c(c1)CN(C(=O)CSC)CC2	6.4	-16.9	-5.5	2.5	-9.0	1.8	i	-7.9
O=C(O)CSc1nc2ccccc2s1	19.5	/	-3.7	-0.2	7.6	-10.5&8.3	i	5.1&0.8
CC(C)(C)NC(=O)C1(C)CCC(=O)N1C1CC1 (stereo not drawn)	-190.3	-20.5	3.2	7.6	/	/	/	/
O=S(=O)(Nc1ccccc1N1CCCCC1)c1ccc(Cl)s1	35.7	-6.8	-8.9	-12.9	-2.1	11.2	i	32.5
CCn1c(SCC(=O)Nc2nc(C)c(C)s2)nc2cccnc21	/	-9.9	-1.9	-0.3	/	-4.1	i	-6.7
COc1ccc(-n2ncc3c2CC(C)(C)CC3NC(=O)c2ccc(OC)o2)cc1 (stereo not drawn)	-4.8	-11.7	1.3	0.4	-8.6	-11.3	i	3.5
CCOc1cc(/C=N/NC(=O)c2nn(C)cc2Br)ccc1OCc1ccccc1	11.4	-6.2	-2.5	-10.8	-5.0	1.0	i	-5.7
NC1=CC(=O)C(=O)c2ccccc21	?	-11.2	11.2	8.9	/	/	/	/
COc1cc(/C=C/C(=O)OCC(=O)c2ccc(OC(F)F)cc2)ccc1O	/	-8.4	4.1	-1.0	34.2	/	/	/
CCOc1ccccc1NC1=C(Cl)C(=O)N(Cc2ccccc2)C1=O	/	-17.6	-0.4	-2.2	-7.4	-1.3	i	0.0
CCOC(=O)C1=C(C)Nc2nc(C)nn2C1c1ccc(C)cc1 (stereo not drawn)	-10.3	-8.0	9.1	-0.5	-11.5	15.0	i	-1.4
COC(=O)C1CCCCN1C(=O)c1cccc(OC2CCN(C(=O)C3CC3)CC2)c1 (stereo not drawn)	/	-2.5	0.6	-0.3	-13.3	-5.2	i	5.1
Cc1ccc(S(=O)(=O)NC(=O)Nc2nccs2)cc1	17.6	-22.3	-3.4	-4.0	-5.7	12.3	i	2.2
COc1ccccc1C(=O)NCCC(=O)NCCC12CC3CC(CC(C3)C1)C2	14.0	-8.6	3.8	-0.6	-3.4	-1.2	i	8.7
CCc1nc(Nc2ccc3c(c2)OCO3)c2oc3ccccc3c2n1	-45.0	-12.7	-1.5	-8.5	18.5	0.8	i	5.1

Reprinted from the part before: four entries, followed by the next part.
SMILES	Env fusion inh	UUG fidelity	MT1-MMP act inh	MT1-MMP act inh RFP	CSC inhib	eIF4H FP inh	Rce1 inh	PABP FP inh	others
COC(=O)C1CCCCN1C(=O)c1cccc(OC2CCN(C(=O)C3CC3)CC2)c1 (stereo not drawn)	/	-2.5	0.6	-0.3	-13.3	-5.2	i	5.1
Cc1ccc(S(=O)(=O)NC(=O)Nc2nccs2)cc1	17.6	-22.3	-3.4	-4.0	-5.7	12.3	i	2.2
COc1ccccc1C(=O)NCCC(=O)NCCC12CC3CC(CC(C3)C1)C2	14.0	-8.6	3.8	-0.6	-3.4	-1.2	i	8.7
CCc1nc(Nc2ccc3c(c2)OCO3)c2oc3ccccc3c2n1	-45.0	-12.7	-1.5	-8.5	18.5	0.8	i	5.1
O=C(NCC1CC1)C1(C(F)(F)F)C/C(=C\Cc2ccccc2)CCCO1 (stereo not drawn)	25.8	-1.7	0.7	-1.9	0.6	/	i	/
CCS(=O)(=O)c1nc(S(=O)(=O)c2ccc(C)cc2)c(N2CCC3(CC2)OCCO3)s1	3.1	47.7	/	/	10.6	6.6	i	1.7
CN(CC(=O)NCc1ccc2c(c1)OCO2)S(=O)(=O)c1ccc(F)cc1	-3.4	/	3.3	6.1	0.4	1.8	i	-0.4
N#CCn1cnc2sc(-c3ccccc3)cc2c1=O	-26.6	/	3.1	9.7	-3.6	40.2	i	0.1
O=C(c1cccc(S(=O)(=O)N2CCOCC2)c1)N1CCN(Cc2ccc3c(c2)OCO3)CC1	4.1	/	-0.8	-2.2	-9.4	-3.4	i	5.3
Nc1nc(SCC(=O)NCc2ccccc2Cl)[nH]c(=O)c1NC(=O)c1ccccc1F	-2.0	-2.4	/	/	-2.5	0.7	i	3.3
Cc1oc2cc3oc(=O)c(CCC(=O)NCCN4CCOCC4)c(C)c3cc2c1C	/	13.1	3.3	0.3	-9.0	-1.5	i	-13.2
O=C(CCc1ccccc1)NNC(=O)COc1ccc([N+](=O)[O-])cc1	-3.2	2.3	1.4	4.9	-0.1	-11.7	i	-7.3
CN(C)Cc1c(C(=O)N/N=C/c2cccnc2)nnn1-c1nonc1N	-2.7	-8.6	-4.4	3.0	-11.6	-3.8	i	6.3
O=C(NC(=S)N1CCOCC1)c1cn(-c2ccccc2)nc1-c1ccccc1	11.9	-6.0	1.8	2.2	/	/	/	/
CNC(=O)c1ccc(-c2cc3onc(-c4ccccc4)c3c(=O)n2C)cc1	3.5	-12.7	-7.0	-21.6	/	/	/	/
CC(OC(=O)c1cc2sccc2n1C)C(=O)NCc1ccco1 (stereo not drawn)	/	/	7.5	-0.1	1.5	-3.2	i	-7.2
CCOC(=O)CCc1c(C)c2ccc(O)cc2oc1=O	-76.0	-4.0	6.8	1.8	3.6	0.7	i	-2.0
CCOC(=O)Cn1c(=O)c2c(nc3n2CCN3c2ccc(C)cc2)n(C)c1=O	-14.5	/	/	/	/	5.4	/	11.5
CCCCc1cc(=O)oc2c(CN3CCCC3)c(O)ccc12	1.1	-4.3	0.0	-1.0	-7.0	22.5	?	15.0
O=C1NCCOC(=O)[C@H](Cc2ccc(F)cc2)CC/C=C/C[C@H]1CC(=O)N(CCO)Cc1ccccc1	0.3	-2.9	12.7	-4.7	/	/	/	/
CSc1ccc(/C=C/C(=O)c2ccc(O)cc2)cc1	/	/	-7.3	-5.9	43.7	3.9	i	4.8
COC(=O)c1ccc(Oc2nc3ccccc3n3c(C)nnc23)cc1	-31.8	/	-3.3	-1.8	-0.5	/	/	/
CC(C)[C@H](NC(=O)OC(C)(C)C)c1nnc(S(=O)(=O)Cc2c(F)cccc2Cl)o1	/	-12.5	1.7	-4.2	44.0	6.0	i	0.2
COC(=O)c1sc(=S)n(-c2cccc(Cl)c2)c1N	/	-18.8	0.4	7.0	-13.7	-1.5	i	-7.8
COc1ccc(C(=O)Nc2ccccc2C(=O)NC(Cc2c[nH]c3ccccc23)C(=O)O)cc1 (stereo not drawn)	18.4	1.4	-0.5	1.4	-3.4	8.5	i	-0.6
CCN(CC)c1ccc(C=NCCNS(=O)(=O)c2ccc(C)cc2)cc1	-4.3	-15.4	-2.5	1.4	0.2	9.4	i	-8.1
CC1CCCN(C(=O)COC(=O)/C=C/c2ccc(C(F)(F)F)cc2)C1 (stereo not drawn)	/	4.4	-0.9	2.3	-6.9	/	/	/
O=C(/C=C/c1ccc(F)cc1)N1CCN(c2ncccn2)CC1	-18.4	/	1.3	3.2	0.8	-6.9	i	16.4
COC(=O)C(NC(C)=O)(Nc1ccccn1)C(F)(F)F (stereo not drawn)	-34.3	-29.6	2.8	2.8	0.9	-8.0	i	-1.6

Remaining list, next part.
SMILES	Env fusion inh	UUG fidelity	MT1-MMP act inh	MT1-MMP act inh RFP	CSC inhib	eIF4H FP inh	Rce1 inh	PABP FP inh	others
CC(/C=C/c1ccc(OCc2ccccc2)cc1)=N\O	-5.1	/	-7.2	-3.8	14.7	-6.1	i	16.8
Cn1c(N)c(S(=O)(=O)NCc2ccc(Cl)cc2)c(=O)n(C)c1=O	3.9	/	-1.9	-0.4	1.1	-8.1	/	-2.8
CCCCN(C(=O)CN1CCOCC1)c1c(N)n(CC(C)C)c(=O)[nH]c1=O	-3.1	/	1.6	1.7	0.4	-5.8	i	7.7
O=C(NCCCn1ccnc1)C1CC(c2ccccc2Cl)=NO1 (stereo not drawn)	-7.1	6.8	6.0	3.0	-10.8	-9.8	i	-0.3
CCSC(=O)NC12CC3CC(CC(C3)C1)C2	/	-0.8	/	/	/	-8.9	/	-5.3
COc1ccc(C(=O)NNC(=O)COc2ccc(Cl)cc2)c(OC)c1	1.2	-16.1	1.5	-0.6	18.7	4.9	i	6.2
CCC(C)C(NC(=O)c1ccccc1NC(=O)c1ccc(C)cc1)C(=O)O (stereo not drawn)	-1.8	/	5.4	6.9	7.9	-3.5	i	-6.0
CCC(C)(C)n1nnnc1C(C(C)C)N1CCC(C(N)=O)CC1 (stereo not drawn)	/	4.2	-1.7	-0.8	-12.1	2.9	i	-7.0
O=C(Cn1ncn2c(cc3ccccc32)c1=O)NCCc1cccs1	/	-17.7	0.4	3.1	-12.0	1.6	i	9.1
Cc1ccc(S(=O)(=O)N2CCC(C(=O)NCCN3CCOCC3)CC2)cc1	-8.6	-15.0	-0.1	2.5	/	/	/	/
COc1cc(C(F)(F)F)c(C(=O)NCc2cccc(Cl)c2)cn1	5.8	-2.1	2.8	0.5	7.9	-3.6	i	6.4
O=c1c(Cc2ccccc2)c(O)nc2n1CCS2	8.4	0.3	-2.9	1.8	14.4	-5.2	i	-0.3
COc1ccc(-c2nc(N)n(C(=O)c3ccccc3Cl)n2)cc1	5.7	-28.5	2.2	0.9	-3.7	-0.2	i	-27.2
CC(=O)c1c[nH]c2ccc(C)cc2c1=O	-76.4	-17.9	2.8	4.2	-1.1	-10.8	i	-3.7
CCOc1ccc(NC(=O)c2ccccc2NC(=O)c2cccnc2)cc1	1.5	-1.9	-1.6	-5.0	-14.3	-5.5	i	-2.6

The list is partial (hit frequency here may not be typical).
